PrP UTR inh – suppresses PrP 5' UTR mRNA reporter expression | cell-based PrP 5' UTR mRNA reporter, plate reader | AID 488862 | hit rate 0.35% among 340,000 | inhibition, % (no concentration beside the values);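 active = every replicate at 50% or more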;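 also: 0 = median of the neutral control wells; tested in H4 reporter cells; numbers are from one replicate; inactives centre near -14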
Bead autofluor – compound fluorescence in toxin protease inhibitor counterscreen; compound autofluorescence counterscreen, microsphere flow cytometry; hits give high values; fluorescence intensity (no concentration beside the values); hit rate 3.1% among 360,000; AID 624483;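 active = at least 3 SD above the mean of all compounds, about 16000 in these data; inconclusive = too few beads counted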;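 also: 100 nL of 1 mM stock went into each well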
BJeLR viability – BJeLR cell viability loss; BJeLR (HRASV12) viability, CellTiter-Glo ATP luminescence, 48 h; reference of the scale not given here; inhibition, % (no concentration beside the values); hit rate 0.17% among 300,000;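 active = replicate mean above 50%; inconclusive = above 50% but judged a plate artefact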;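 also: 50 nL library stock added to about 25 µL; numbers are from one replicate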
Mtb hypoxia inh – inhibitors of hypoxia-regulated fluorescent reporter in Mycobacterium tuberculosis. fluorescence inhibition, % (concentration not given with the values). M. tuberculosis hypoxia-regulated fluorescent reporter, fluorescence. hit rate 0.1% among 300,000;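 active = 35 to 45% if threefold the growth effect, above 45% if 1.5-fold the growth effect; inactive = the rest, general growth blockers included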;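 also: wells of about 50 µL received 100 nL stock; 0% = vehicle wells and 100% = reference inhibitor wells; whole bacteria with a GFP reporter of the hypoxia response; strong numbers were not always called active; many hits fall short of the cut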
Sa RN4220 lethal – kills Staphylococcus aureus RN4220; S. aureus RN4220 growth, OD600, 16 h; inhibition, % (test concentration not listed); hit rate 0.33% among 330,000;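 active = z-score of -3 or lower and OD600 up to 0.18 on both plates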;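 also: plate controls were untreated cells for no effect and reference antibiotic for full effect; stock transfer was 100 nL into about 80 µL; one replicate is shown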
ugtP null kill – compounds lethal to S. aureus RN4220 ugtP deletion mutant | growth inhibition, % (concentration not given with the values) | OD600 growth, 16 h; some inactives read as strong as hits | hit rate 0.54% among 330,000 | AID 1259309;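 active = z-score under -3 and OD600 up to 0.15 on both plates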;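 also: plate controls were untreated wells for no effect and antibiotic for full effect; wells of about 80 µL received 100 nL stock; the first replicate is given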
Mtb hypoxia inh growth – further read-out of Mtb hypoxia inh, marked with its call; growth inhibition, %; measured here: M. tuberculosis growth (absorbance);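 0% = vehicle and 100% = reference antibiotic; read after six days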
An asterisk follows results filed as active; ? = inconclusive; nt = no result given. The order is random. Share with any hit: about 4%.

SMILES | PrP UTR inh | Bead autofluor | BJeLR viability | Mtb hypoxia inh | Mtb hypoxia inh growth | Sa RN4220 lethal | ugtP null kill
COn1c(-c2ccc(Cl)cc2)nc2ncccc21 | -31 | 5007 | -4 | 22 | 7 | 3.3 | 2
C=CCSC1=C(C#N)C(c2ccccc2)CC(=O)N1 (stereo not given) | -20 | 5649 | 9 | 4 | 7 | 4.1 | 0
O=C(CCc1ccc(S(=O)(=O)N2CCOCC2)cc1)Nc1ccc2ccccc2c1 | -14 | 21385* | 1 | 1 | 11 | 0.7 | -9
CC(=O)Nc1ccc(NS(=O)(=O)c2ccc3c(c2)oc(=O)n3C)cc1 | -17 | 2840 | -7 | -4 | 0 | 3.3 | 4
C=CCc1ccc(OCCn2nnc3ccccc32)c(OC)c1 | -96 | 3703 | -8 | nt | nt | nt | nt
CCc1ccc(C2C(C#N)=C(N)C(C#N)(C#N)C3=CCC(C(C)(C)C)CC32)cc1 (stereo not given) | -3 | 5903 | -3 | -1 | 8 | 38 | 40
O=C(Cc1cccs1)NCCS(=O)(=O)N1CCN(c2cccc(Cl)c2)CC1 | -10 | nt | -2 | -2 | -3 | 0.6 | -1
CCCCCCNc1nc(OC)nc(N2CC3CC(C2)c2cccc(=O)n2C3)n1 (stereo not given) | -9 | 3917 | -7 | 12 | 14 | 13 | 5
CC(=O)c1cc2c(=O)c3ccccc3oc2nc1C | -55 | 3109 | -9 | 16 | 5 | -7.7 | -3
Cc1ccc(Nc2nc(/N=C/N(C)C)n[nH]2)cc1C | -51 | 4394 | -9 | nt | nt | nt | nt
CN(C)Cc1nc2ccccc2c(=O)n1Cc1nc(-c2cccc([N+](=O)[O-])c2)cs1 | -10 | 4142 | 10 | 13 | 12 | -4.3 | 8
Cc1ccc(C(=O)N/C(=C\c2ccco2)C(=O)N2CCOCC2)cc1C | -24 | 5298 | 0 | 13 | -12 | 0.4 | 0
O=S(=O)(Nc1nc2ccccc2nc1Cl)c1ccc2ccccc2c1 | -34 | 8820 | 3 | 11 | 2 | 13 | -2
CC(C)Sc1nc2c(c(=O)n(C)c(=O)n2C)n1Cc1ccc(Cl)cc1 | -13 | 2899 | 12 | 38* | 0.5* | -13 | 0
O=C(/C=C/c1ccco1)Nc1ccccc1N1CCCC1 | -11 | 2574 | -6 | 25 | 17 | 5.6 | 10
COc1cc(CNc2ccccc2Oc2cc(=O)n(C)c(=O)n2C)cc(OC)c1OC | -8 | 4098 | -9 | nt | nt | 1.4 | 1
CCCNS(=O)(=O)c1ccc2c(c1)CCCN2C(C)=O | 10 | 5175 | -4 | nt | nt | 0.9 | 8
Cn1nc(C(=O)NNC(=O)CCc2ccccc2Cl)c2ccccc2c1=O | -11 | ? | 8 | 1 | 5 | 2.1 | 2
Cc1ccc(CSCC(=O)N/N=C/c2ccc(OCC(=O)Nc3ccc(C)cc3)cc2)cc1 | 0 | 3087 | 1 | nt | nt | nt | nt
CCCC(CCC(=O)Nc1cc([N+](=O)[O-])ccc1O)C(=O)O (stereo not given) | 10 | 2019 | -3 | 7 | -3 | 6.1 | 11
S=c1[nH]c2ccccc2n1CCOc1ccccc1 | -29 | 3640 | -19 | 6 | 12 | 7.5 | 4
COC(=O)C1=C(c2c(C)noc2C)CC2CCC1N2C(=O)NCc1ccco1 (stereo not given) | nt | nt | nt | 8 | 11 | 4.6 | -2
Cc1cc(C(=O)N2CCN(c3ncccn3)CC2)nn1C | -24 | 4492 | 12 | -1 | 9 | -2.0 | -7
Cc1ccc(N2CC(C(=O)NC3CC3)CC2=O)cc1 (stereo not given) | -5 | 5894 | -4 | -5 | -2 | 8.2 | 9
CN(C)c1ncnc2[nH]ncc12 | -5 | 4513 | nt | 2 | -2 | 3.0 | 3
Nc1cc(C(=O)OCC(=O)NC(c2ccccc2)c2ccccc2)ccc1Cl | -13 | 2459 | -8 | 3 | 4 | 7.2 | -3
CCN(CC)CCn1c(N)cc(=O)[nH]c1=O | -11 | 1950 | -2 | -9 | 4 | 0.3 | 1
Cc1cccc(NC(=O)c2ccc([N+](=O)[O-])o2)c1C | -14 | 3707 | -4 | 7 | 28 | 4.1 | 9
CC(C)N1CCN(Cc2coc3ccccc3c2=O)CC1CCO (stereo not given) | 0 | 2735 | -8 | -9 | 10 | 0.0 | 11
COc1ccc(C(=O)Nc2ccc(C(=O)OCC(=O)c3ccccc3)cc2)cc1 | -19 | ? | 5 | nt | nt | 2.1 | 6
O=C(COC(=O)c1cccnc1Cl)NC(=O)c1ccc(OC(F)F)cc1 | -20 | 2880 | nt | -6 | -7 | -1.8 | 2
CSc1nnc(-c2ccco2)n1-c1ccccc1 | -8 | 4649 | -7 | nt | nt | -1.1 | 1
O=S(=O)(NC1=NCCC1)c1cccc(NC(=S)Nc2ccc(OC(F)F)cc2)c1 | -24 | 4016 | nt | 6 | 14 | 1.9 | 4
COCCN(CCOC)S(=O)(=O)c1ccc(C(=O)Nc2nc(-c3ccncc3)cs2)cc1 | -2 | 10614 | nt | -1 | 3 | -0.6 | 10
CC1CCCN(C(=O)COC(=O)Cc2c[nH]c3ccccc23)C1 (stereo not given) | 7 | ? | nt | 6 | 9 | 2.6 | 0
Cn1c(=O)c2[nH]c(CCCCCCCCc3nc4ccccc4[nH]3)nc2n(C)c1=O | -3 | 3472 | nt | 4 | 9 | 5.0 | 3
N#Cc1nc(-c2ccc(OCc3ccccc3)cc2)oc1NCCCn1ccnc1 | 2 | 2679 | 1 | nt | nt | nt | nt
CC(C)c1ccccc1NC(=O)CNCCOc1ccccc1F | -3 | 3743 | 4 | -10 | 10 | 5.7 | 4
CCOc1cccc(OCCOCCN2CCCC2)c1 | -5 | 3691 | 11 | 9 | 2 | 5.8 | 0
CCOC(=O)c1c(NC(=O)c2ccoc2C)sc(C)c1C | -6 | 3399 | 4 | nt | nt | 11 | 9
CCCC(C)NC(=O)CN1C(=O)c2cccc3cccc1c23 (stereo not given) | -13 | 3377 | 9 | 6 | 2 | -1.4 | 6
COC(=O)C1CCN(C(=O)CSc2nnc(-c3ccncc3)o2)CC1 | -8 | 3359 | 7 | 8 | 2 | -17 | -1
CCN(Cc1ccccc1)C1CCN(Cc2ccccc2)CC1 | -6 | 4052 | 1 | 10 | 14 | 0.0 | 5
Cc1c(NC(=O)OCCSc2nc(N(C)C)nc(N(C)C)n2)sc(=S)n1C | -17 | 9569 | 0 | 11 | 12 | 5.2 | -1
COc1cc(OC)nc(NC(=S)NC(=O)c2ccccc2)n1 | -21 | 2016 | 0 | 5 | 10 | 7.2 | -21
CCOC(=O)C1=CN(Cc2cccc(F)c2)S(=O)(=O)N(CC)C1c1ccc(C(F)(F)F)cc1 (stereo not given) | -1 | 3576 | nt | -5 | -3 | -5.9 | -8
Cc1ccc(C(=O)N/N=C\c2ccc(-c3ccc(Cl)cc3)o2)cn1 | -28 | 5114 | -8 | nt | nt | nt | nt
NC(=O)c1ccccc1NC(=S)NC(=O)c1ccc(Br)o1 | -43 | 2100 | 10 | 3 | 12 | 6.2 | 0
Cc1ccc(S(=O)(=O)Nc2ccc(C(=O)NC3CC3)cc2)cc1 | -16 | 5741 | 1 | 5 | 1 | 0.4 | -1
Clc1ccc(CSc2nc3ccncc3[nH]2)cc1 | -33 | 6104 | 13 | 5 | 13 | -13 | -7
COc1ccccc1CN1CC(C(=O)NCc2cccc(C)n2)CCC1=O (stereo not given) | -5 | 5447 | -10 | 4 | 0 | 0.5 | -2
O=C1/C(=C/c2ccc([N+](=O)[O-])cc2)CCc2ccccc21 | nt | nt | 3 | 11 | -4 | 9.0 | 7
COc1ccc(OC)c(CCNC(=O)CCC(=O)N2CCOc3ccc(C)cc32)c1 | -6 | 5383 | -7 | 6 | -2 | 5.3 | 9
C/C(=N\NC(=O)C1=NNC(=O)C1C)c1cccs1 (stereo not given) | -33 | 4283 | 15 | nt | nt | nt | nt
COc1cccc(C=NNc2ccc([N+](=O)[O-])cn2)c1O | nt | nt | nt | 6 | -10 | 14 | 48
COc1cccc(NC(=O)CN2C(=O)C(c3ccc(C)cc3)=NC23CCCCCC3)c1 | -16 | 2592 | 2 | -3 | -3 | -2.8 | -4
COc1ccccc1-c1sc2ccccc2c1-c1ccc(Br)nc1 | -9 | 4121 | nt | 7 | 14 | -7.3 | 47
COc1ccc(C(=O)NCCc2ccc(C(F)(F)F)cc2)cc1S(=O)(=O)N1CCOCC1 | -22 | 3972 | nt | -6 | -2 | 3.7 | 5
Cc1ccc(NC(=O)Nc2ccccc2C(N)=O)cc1 | -25 | 3982 | -2 | nt | nt | nt | nt
O=C(c1cccs1)N1CCC2(O)CCCCC2C1c1ccc(F)cc1 (stereo not given) | -7 | 2159 | 5 | -5 | 0 | -0.9 | -6

(next part)
SMILES | PrP UTR inh | Bead autofluor | BJeLR viability | Mtb hypoxia inh | Mtb hypoxia inh growth | Sa RN4220 lethal | ugtP null kill
CCN(CC)c1ccc(NC(=O)c2cnc3ccccn3c2=O)c(C)c1 | -7 | 6979 | 3 | 4 | 3 | 2.0 | -1
Cc1cc(C)n(CCN(C)c2nc3nonc3nc2NC2CC2)n1 | -7 | 2138 | 11 | 12 | 1 | 4.0 | 1
OC(COc1ccc(Cl)c2ccccc12)CN1CCN(c2ccccn2)CC1 (stereo not given) | -31 | 4953 | 1 | nt | nt | -8.0 | -24
CC1OCC(C[N+](C)(C)C)O1 (stereo not given) | nt | nt | nt | 9 | 1 | 4.4 | -6
CN(C)CCCCCCCCCCC(=O)C=NO | nt | nt | nt | 6 | -2 | 1.7 | 15
COc1ccc(S(=O)(=O)N2CCOC2CNC(=O)C(=O)NCCN2CCOCC2)cc1OC (stereo not given) | -66 | 4181 | 2 | 11 | 8 | 1.1 | 9
COc1ccc(OC)c(NC(=O)CCN2C(=O)c3cccc([N+](=O)[O-])c3C2=O)c1 | -9 | 3388 | 8 | -3 | 2 | 2.1 | -2
Cc1cc(C)c(NS(=O)(=O)c2c(C)noc2C)c(C)c1 | -6 | 5573 | -2 | 6 | 12 | 8.2 | 4
CC(=O)NC1C(OCc2cccc(Br)c2)OC(COC(C)=O)C(OC(C)=O)C1OC(C)=O (stereo not given) | -14 | 4746 | -5 | 10 | 4 | 7.0 | 7
O=C1CCC(O)CCN1CCC(Sc1ccc(Br)cc1)c1ccccc1 (stereo not given) | nt | nt | nt | 2 | -1 | 4.0 | 10
N[C@@H](C(=O)N[C@@H]1C(=O)N2C(C(=O)O)=C(Cl)CS[C@H]12)c1ccccc1 | -19 | 5627 | -13 | nt | nt | nt | nt
O=C(/C=C/c1ccco1)NCC1OCCc2ccccc21 (stereo not given) | -22 | 3399 | 2 | 21 | 17 | 0.7 | -6
CC(C)CCOc1ccc(C2=NNC(=O)CC2)cc1 | -7 | 2518 | -3 | -1 | 1 | 3.4 | 6
CC(=NNC(=O)NC1CCCCC1)c1ccc(OC(F)F)cc1OC(F)F | nt | nt | nt | 1 | 0 | -0.3 | 6
O=[N+]([O-])c1ccc(C2CC(c3ccccc3)=Nc3ccccc3S2)cc1 (stereo not given) | -30 | 3883 | 4 | nt | nt | nt | nt
COC(=O)C1=C(C)N(C)C(=O)NC1c1c(OC)ccc2ccccc12 (stereo not given) | -12 | 2984 | -4 | -2 | 9 | 0.7 | 3
O=C(O)c1ccc(O)c(N2C(=O)Nc3ccccc3N2O)c1 | -18 | 2370 | -5 | nt | nt | 2.3 | 8
CC12CC3(C)CC(C)(C1)CC(NC(=O)N1CCCC1)(C2)C3 | 9 | 2389 | 3 | nt | nt | 15 | 3

5 entries from above, with values under each structure:
Every second line gives: PrP UTR inh, Bead autofluor, BJeLR viability, Mtb hypoxia inh, Mtb hypoxia inh growth, Sa RN4220 lethal, ugtP null kill
Cc1cc(C)n(CCN(C)c2nc3nonc3nc2NC2CC2)n1
  -7, 2138, 11, 12, 1, 4.0, 1
OC(COc1ccc(Cl)c2ccccc12)CN1CCN(c2ccccn2)CC1 (stereo not given)
  -31, 4953, 1, nt, nt, -8.0, -24
CC1OCC(C[N+](C)(C)C)O1 (stereo not given)
  nt, nt, nt, 9, 1, 4.4, -6
CN(C)CCCCCCCCCCC(=O)C=NO
  nt, nt, nt, 6, -2, 1.7, 15
COc1ccc(S(=O)(=O)N2CCOC2CNC(=O)C(=O)NCCN2CCOCC2)cc1OC (stereo not given)
  -66, 4181, 2, 11, 8, 1.1, 9

Source: PubChem (several laboratories)
